Screening data: PubChem BioAssay, several laboratories
Vif TR-FRET – HIV-1 Vif–A3G interaction blockers – biochemical, TR-FRET, GST-Vif 1-94, biotin-A3G peptide, dose response retest, primary screen (AID 1117319); actives 0.57% (n = 260,000); TR-FRET GST-Vif / biotin-A3G peptide binding; higher % means a stronger effect; test concentration not given here; strong numbers were not always called active; inhibition, %, or IC50 in µM where a hit was titrated;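 active means above the screen mean plus three standard deviations and confirmed in dose response; inconclusive means results disagree or hit not tested in dose response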;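 further: Vif residues 1-94 fused to GST binding biotinylated APOBEC3G peptide 110-148; 0% = full assay without inhibitor and 100% = GST in place of GST-Vif; retest series ran down from 100 µM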
T cruzi repl – T. cruzi replication inhibition; T. cruzi beta-gal in NIH3T3, luminescence, 90 h; inhibition, % (concentration not given with the values); actives 1.4% (n = 300,000);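 active means mean inhibition across valid replicates above about 55%, limit read from the data; inconclusive means mean below that limit but half or more replicates reach it; inactive means mean below it, under half of replicates reach it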;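 further: signal also drops with host cell toxicity which is not excluded here; 0% = plate median of DMSO wells and 100% = zero luminescence signal; higher percent means less beta-gal luminescence so fewer parasites; stock transfer was 50 nL into about 50 µL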
RanGTP-Impb inh – disruptors of Ran-importin-beta complex formation – biochemical, FRET, CFP-Ran, YFP-importin-beta, homogeneous, primary screen. AID 2216. actives 1.1% (n = 300,000). cell-free CFP-Ran/YFP-importin-beta FRET ratio. inhibition, % (test concentration not listed);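 active means most replicates above 15%; inconclusive means exactly half above 15%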;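 further: 0% = DMSO wells and 100% = Ran loaded with GDP instead of GTP; wells of about 40 µL received 100 nL stock; the first replicate is given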
Bfl-1 A1 inh – inhibitors of the anti-apoptotic protein A1, read as caspase activation | caspase activation, % (concentration not given with the values) | actives 0.066% (n = 330,000) | MEF A1-2A-BIM cells, Caspase-Glo 3/7 luminescence, 3 h; percent of clofoctol response, vehicle zero;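 active means over half of replicate activation scores above 10%, or exactly half above 10 with the replicate mean above 10; inconclusive means replicate mean below 10 yet half the replicates above 10; inactive means over half of replicates below 10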;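 further: wells of about 30 µL received 50 nL stock; many hits fall short of the cut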
Ecoli rRNA inh – selective bacterial rRNA inhibition in E. coli; actives 1.6% (n = 350,000); GFP signal change (wild-type ribosome), % (no concentration beside the values); E. coli WT GFP vs humanized-ribosome RFP mutants, fluorescence, 24 h; stronger effect = lower value; DMSO median 0, no signal -100; AID 720706;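 active means significant combined selectivity score with lowered wild-type GFP, culture density cut under 30%, mutant RFP and density less affected; inactive means any of these conditions unmet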; further: one replicate is shown; some compounds called inactive have numbers as strong as hits
MLL AF4-AF9 inh – MLL-AF4/AF9 protein interaction inhibition; inhibition, % at 10 µM; P42568; actives 0.47% (n = 350,000); AlphaScreen, biotin-AF4 peptide binding to FLAG-AF9; AID 651704;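 active means every replicate reaching a set inhibition limit, whatever the replicate mean, cut at about 25% in these data; inconclusive means mean inhibition reaches that limit but some replicates miss it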;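 further: 0% = plate neutral control median and 100% = total signal loss; the record names both 10 and 1 µM as test concentration; the first replicate is given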
Target sequence (P42568 whole entry, looked up): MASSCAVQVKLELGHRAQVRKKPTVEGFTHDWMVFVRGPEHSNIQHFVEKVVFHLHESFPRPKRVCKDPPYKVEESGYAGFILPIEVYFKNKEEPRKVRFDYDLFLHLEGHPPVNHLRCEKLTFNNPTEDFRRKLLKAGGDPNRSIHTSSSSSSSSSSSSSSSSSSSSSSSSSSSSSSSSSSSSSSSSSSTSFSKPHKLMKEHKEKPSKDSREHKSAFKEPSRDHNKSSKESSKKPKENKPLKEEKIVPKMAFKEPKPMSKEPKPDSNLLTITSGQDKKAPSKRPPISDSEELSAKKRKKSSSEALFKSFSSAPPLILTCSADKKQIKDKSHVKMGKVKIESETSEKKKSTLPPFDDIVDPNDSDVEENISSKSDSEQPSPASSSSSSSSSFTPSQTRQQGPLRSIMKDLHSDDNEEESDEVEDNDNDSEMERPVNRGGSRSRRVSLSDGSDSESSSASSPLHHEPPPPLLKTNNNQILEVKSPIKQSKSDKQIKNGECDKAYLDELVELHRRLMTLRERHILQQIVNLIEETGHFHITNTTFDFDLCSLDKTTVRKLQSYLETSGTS
Beta cell apopt – blocks beta cell apoptosis; INS-1E cytokine-induced death, ATP luminescence, 48 h; percent of positive-control rescue, neutral wells zero; protection from apoptosis, % (test concentration not listed); actives 0.8% (n = 300,000); AID 435005;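 active means all replicates at 75% or more, or half of them and the mean; inconclusive means half reach 75% but not the mean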;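 further: 0% = cytokine-treated negative control wells and 100% = positive control rescue; higher means more ATP so stronger rescue from cytokine killing; wells of about 40 µL received 100 nL stock; the first replicate is given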
Calb FLC – affects C. albicans growth with fluconazole | growth inhibition, % (no concentration beside the values) | actives 0.57% (n = 300,000) | C. albicans CaCi-2 (fluconazole-resistant clinical isolate) + fluconazole, Alamar Blue growth, 48 h;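 active means most replicates above 75%; inconclusive means exactly half above 75%; inactive means most below 75%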;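 further: all wells also contain fluconazole at 8 µg/ml as a sub-toxic cotreatment; 0% = median of DMSO wells and 100% = median of geldanamycin control wells; wells of about 8 µL received 7.5 nL stock; the first replicate is given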
Ecoli rRNA inh OD600 – also measured in Ecoli rRNA inh; calls as there; OD600 change, %; measured here: OD600 growth;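 optical density of the mix in the first replicate; 0 = DMSO median and -100 = no signal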
Ecoli rRNA inh RFP – further read-out of Ecoli rRNA inh, marked with its call; RFP signal change, %; measured here: RFP humanized mutant strains;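 first replicate; 0 = DMSO median and -100 = no signal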
* = called active by the depositor; u = inconclusive; x = no result given; & = joins results of further samples. Not all compounds are listed, so the mix of outcomes need not match the whole.

SMILES | Vif TR-FRET | T cruzi repl | RanGTP-Impb inh | Bfl-1 A1 inh | Ecoli rRNA inh | Ecoli rRNA inh OD600 | Ecoli rRNA inh RFP | MLL AF4-AF9 inh | Beta cell apopt | Calb FLC
O=C(Cc1ccsc1)NCc1ccccc1F | x | -18 | -4.0 | 0.3 | 11 | 8 | 1.7 | -1.5 | -8 | -9
C[C@@]12C(=O)N(Cc3ccc(F)cc3)CC(=O)N1[C@H]1c3cc(Cl)ccc3OC[C@@H]1[C@@H]2c1ccccc1 | x | x | x | 0.9 | 7 | 8 | -0.6 | 3.0 | 8 | x
COc1ccc(NC(=O)Cn2cc(C(C)=O)c3ccccc32)cc1 | -10% | -7 | -2.4 | 1.8 | -6 | -4 | -1.5 | -6.7 | x | 4
COc1cc(C)c(/C=C/C(C)=C/C=C/C(C)=C/C(=O)O)c(C)c1C | x | 9 | -6.4 | 0.9 | -6 | 1 | 13 | 14 | -10 | x
CC(=O)N1CCc2cc(S(=O)(=O)C(C)CC(=O)NCc3ccc(C)o3)ccc21 (stereo not given) | 0% | 7 | -0.3 | 0.1 | 9 | 18 | 0.1 | -5.1 | -4 | 32
O=C(Nc1cnc2ccccn2c1=O)c1ccc(F)cc1 | 13% | -10 | 2.0 | -1.6 | x | x | x | x | 1 | -15
CCN1CCN(CC(O)COCc2cc(OC)c(OC)c(OC)c2)CC1 (stereo not given) | -3% | 0 | 9.2 | 0.0 | -1 | -1 | -1.0 | -1.0 | 3 | -2
CCN1CCN(C(=O)C2CCCN(S(=O)(=O)c3ccc(OC)c(OC)c3)C2)CC1 (stereo not given) | x | -5 | -0.5 | 1.1 | 6 | 11 | 2.6 | -0.1 | -6 | -1
CC(=O)c1ccc(N2CCN(S(=O)(=O)c3c(C)[nH]c(=O)[nH]c3=O)CC2)cc1 | -23% | -10 | u | -0.4 | 22 | 29 | 3.3 | 0.7 | x | 14
COc1ccc(C2NC(=O)NC(C)=C2C(C)=O)cc1 (stereo not given) | 7% | -13 | u | 0.3 | x | x | x | x | -3 | 1
O=C(N1CCN(CCO)CC1)N1c2ccccc2CCc2ccccc21 | -1% | 5 | -1.1 | -0.7 | 7 | 3 | -1.1 | -3.3 | -3 | -3
CC(C)c1cc(C(=O)NCc2ccco2)no1 | 20% | 4 | -0.4 | -0.7 | 15 | 15 | 1.0 | 4.9 | -2 | -2
CCC(=O)NCCc1nc2cc(NC(=O)c3ccc(OC)cc3)ccc2n1C | 8% | -1 | -2.7 | 0.1 | 4 | 5 | -9.9 | 5.2 | -2 | 2
O=C(c1ccc2c(=O)n3c(nc2c1)CCC3)N1CCCSC1=Nc1ccccc1 | -1% | -5 | 2.4 | -1.0 | 12 | 7 | 1.0 | 0.5 | -16 | 1
Cn1nccc1C(=O)N1CCCC(N2CCN(Cc3ccc4c(c3)OCO4)CC2)C1 (stereo not given) | x | 7 | 1.4 | 0.9 | 7 | 13 | 0.9 | 0.2 | -8 | -2
Cc1ccccc1-c1nc(CS(=O)(=O)CC(=O)N(C)C2CCCCC2)c(C)o1 | -7% | 0 | 4.9 | 0.8 | -5 | -22 | 5.4 | -9.7 | 3 | 6
N#C/C(=C\c1cccc(Cl)c1)c1n[nH]c(Cn2cncn2)n1 | 19% | 3 | 1.3 | 0.5 | x | x | x | x | -2 | -8
O=C(c1ccccc1)N1CCCCCC1 | -1% | -9 | -1.2 | 0.4 | x | x | x | x | -5 | -29
Cc1ccc(N=Cc2c(C)[nH]n(-c3nc4ccccc4[nH]3)c2=O)cc1 | 6% | -18 | 1.7 | -9.2 | 3 | 1 | 39 | -11 | 92* | 2
CCOC(=O)C1CCCN(c2c(NCc3ccco3)c(=O)c2=O)C1 (stereo not given) | 1% | 2 | -1.5 | -0.2 | 6 | 5 | -3.5 | -4.8 | -2 | -5
COc1ccccc1NC(=O)Cn1nc(-c2ccncc2)nc1SCC(=O)NC1CCCC1 | 2% | 11 | -1.0 | 0.1 | -5 | 8 | -0.3 | -0.6 | -2 | -7
CCCCNC(=O)C1CC(c2ccc(C(F)(F)F)cc2)=NO1 (stereo not given) | 12% | -11 | 6.4 | 0.3 | 0 | 4 | -4.8 | -0.7 | -16 | -11
O=C(O)CCSc1nnc(COc2ccc([N+](=O)[O-])cc2)n1-c1ccccc1 | 7% | -2 | -2.3 | -0.1 | -9 | 0 | -3.3 | -14 | -14 | 22
CCOC(=O)c1ccc(N2C(=O)CC(C)(CC)CC2=O)cc1 | 29% | -19 | 1.7 | 1.0 | 6 | -5 | -3.2 | -6.5 | 5 | 8
CCCCNC(=O)COC(=O)C1CCN(S(=O)(=O)c2ccc3c(c2)OCCO3)CC1 | -6% | x | x | 1.3 | -2 | 3 | 0.2 | 1.8 | -1 | x
CN(C)c1ccc(C(=O)NNC(=O)C23CC4CC(CC(C4)C2)C3)cc1 | 0% | x | x | -0.3 | x | x | x | 0.0 | 1 | x
Cc1ccc(C)c(S(=O)(=O)N2CCN(C(=O)[C@@H](NC(=O)c3ccc(F)cc3)C(C)C)CC2)c1 | -5% | x | x | -1.1 | 3 | 0 | 1.5 | 2.9 | 3 | x
NC(=O)Cn1cc(/C=N\NS(=O)(=O)c2ccc(F)cc2)c2ccccc21 | x | 4 | 4.0 | 1.1 | 7 | -4 | 0.1 | 2.9 | -3 | 6
Cc1ccccc1C(=O)NCCNC(=O)c1cnccn1 | x | -2 | -2.0 | 0.2 | 10 | 10 | 2.0 | -1.7 | -5 | -1
Cc1ccnc(N(C(=O)c2cccs2)C(=O)c2cccs2)c1 | -1% | -7 | -0.9 | -7.2 | x | x | x | x | -6 | -6
Fc1ccc(NC(=S)NN2CCOCC2)cc1Cl | -1% | -13 | 2.0 | 0.0 | 5 | 6 | -4.3 | -16 | -1 | 3
NC(=O)c1ccsc1NC(=O)c1ccc(S(=O)(=O)N2CCCc3ccccc32)cc1 | -7% | 29 | -2.7 | -1.0 | -8 | -17 | 7.5 | 6.3 | x | 1
Cc1nc2sccc2c(=O)n1N | -3% | 1 | -0.9 | 0.5 | 10 | 15 | 6.5 | 12 | 2 | -1
COC(=O)c1ccc(OCC(=O)c2cccc(OC)c2)cc1 | -9% | -13 | -1.1 | -2.7 | 19 | 14 | -0.3 | -4.6 | -3 | 0
COC(=O)c1c(NC(=O)COC(=O)[C@@H](NS(=O)(=O)c2ccc(C)cc2)C(C)C)sc2c1CCC2 | -14% | 15 | 1.7 | -0.6 | x | x | x | x | 10 | -8
CCO[C@H]1OC(C(=O)N2CCN(Cc3ccccc3)CC2)=C[C@@H](C)[C@@H]1CCCO | 5% | -5 | 0.7 | 1.0 | -2 | 6 | -5.8 | -2.9 | -10 | -1
Cc1[nH]c(=O)c(C#N)c(C)c1Cc1ccc(Cl)cc1Cl | -3% | -2 | 0.2 | 0.1 | 9 | 13 | 0.5 | -1.8 | 5 | 5
CN(CC(=O)NC1CCCCC1)S(=O)(=O)c1ccc(Cl)cc1 | 0% | 1 | 2.1 | -0.1 | x | x | x | x | -3 | -1
C=CCC(Nc1ccccc1)c1ccc(OC)c(OC)c1 (stereo not given) | 3% | 5 | 3.3 | 0.2 | x | x | x | x | -5 | -4
CCOc1ccc(NC(=O)CSc2cn[nH]n2)cc1 | -2% | -5 | u | -1.7 | 3 | 5 | -0.9 | -0.7 | -3 | -1
COc1ccc(N2CCN(C(=O)CCC(=O)c3cc(C)sc3C)CC2)cc1 | x | 6 | 1.5 | -0.5 | -34 | -38 | 3.1 | 7.8 | -1 | 2
CCCOc1ccc(C(=O)N2CCN(c3ccc(NC(=O)CC)cc3Cl)CC2)cc1 | 4% | 24 | 2.8 | 0.3 | -16 | -24 | -2.9 | x | 9 | -16
CC(=O)N1CCC(=O)N(C(C)C)c2ccccc21 | 23% | -11 | 0.2 | -0.1 | x | x | x | x | -2 | -8
Cc1cccc(OCC(=O)NC(Cc2ccccc2)C(=O)O)c1 (stereo not given) | -8% | 7 | 4.2 | 0.0 | x | x | x | x | 3 | 3
Cc1c(C(=O)N(Cc2nnc(-c3ccccc3Cl)o2)C2CC2)oc2ccccc12 | 16% | x | x | 1.6 | -29 | -50 | -0.8 | 1.3 | -3 | x
CCC(C(=O)NC1CCCC1)N(C(=O)c1snc(C(N)=O)c1N)c1ccc(OC)c(OC)c1 (stereo not given) | x | 17 | 0.0 | 0.5 | 2 | 6 | -1.4 | 0.1 | 3 | 3
COc1c(Cl)cnn(-c2ccc(C)cc2)c1=O | -3% | -37 | -0.9 | 0.4 | 2 | 7 | -1.7 | -37 | -5 | -3
CCOC(=O)C(CC)Sc1ncnc2nc[nH]c12 (stereo not given) | 17% | -6 | -1.8 | -0.2 | x | x | x | x | 3 | -13
Cc1ccc(S(=O)(=O)Cn2nnnc2C(c2ccccn2)N2CCN(c3ccccc3)CC2)cc1 (stereo not given) | -2% | 10 | 3.9 | 0.4 | x | x | x | x | -6 | -20
O=C1CCC/C(=N\NC(=O)c2ccc(COc3cccc4cccnc34)cc2)C1 | 17µM* | -13 | 1.8 | 0.3 | x | x | x | x | 2 | 11
CC(Sc1nncs1)C(=O)NCC(=O)Nc1ccc(F)c(F)c1F (stereo not given) | 1% | -10 | 0.0 | 0.5 | 14 | 11 | 1.9 | -0.6 | -1 | -19
COc1ccc(NC(=S)NCc2ccco2)cc1 | 1% | 1 | -2.1 | -0.8 | x | x | x | x | 0 | -5
CNS(=O)(=O)c1cccc(C(=O)NCC2(N3CCOCC3)CCCCC2)c1 | 5% | 4 | 6.5 | -0.3 | 10 | 17 | 2.7 | -0.4 | 1 | -5
COc1ccc(C(=O)CSc2nnc(CN3CCCCC3)n2-c2ccc(F)cc2)cc1 | 8% | 23 | -2.4 | 0.5 | -18 | -19 | -6.4 | 1.0 | 1 | -4
CCCNC(=S)N1CCN(c2nc(-c3cccc(OC)c3)cs2)CC1 | x | 21 | -2.2 | 1.0 | 5 | 8 | -2.7 | -6.3 | -2 | 22
CNC[C@H]1Oc2c(NS(=O)(=O)c3ccc(OC)cc3)cccc2C(=O)N([C@H](C)CO)C[C@H]1C | x | x | x | 0.2 | 2&13 | 7&7 | -0.2&-1.1 | -1.4&-1.5 | -3 | x
